High-throughput results: PubChem, National Center for Advancing Translational Sciences (NCATS)
Six1-Eya2 blk = Six1/Eya2 interaction inhibition | AlphaScreen GST-Six1/His-Eya2 binding, biochemical; active compounds read low; control for the full effect not named in the record | activity change, % (test concentration not listed) | Q15475+O00167 | hit rate 0.56% among 360,000 | AID 651725; in the data active = activity change below about -65%; inconclusive = about -30% to -65%; inactive = above about -30%; further: on the % scale 0 is the no-effect control and ±100 the full control effect
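GST-Six1 + His-Eya2 (5X stock: 250/500 nM); Tris pH 8.0, 300 mM NaCl, 0.05% BSA, 0.02% Tween 20; GSH donor/Ni acceptor beads; 1 h 37 °C dark; AlphaScreen readout.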
PINK1 modulator = modulators of PINK1 expression; PINK1 immunofluorescence, high-content cytometry, 24 h; Potency, µM (top dose mostly 76.6 µM), for inactives: top-dose activation (PINK1 increase), hits mostly activators; hit rate 0.2% among 410,000; AID 624263; active = well fitted activation curve with a large enough effect; inconclusive = small, poorly fitted or top-dose-only effect; inactive = flat fitted curve, though single readings scatter; cell line not stated here;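 further: potency means the concentration at half of the fitted maximal effect; % of control where 0% means no effect; nearly all actives have a fitted effect of over 65% in size; a mitochondrial uncoupler was the plate control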
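Readout is PINK1 immunofluorescence, quantified alongside mitochondrial, cell and nuclear markers by laser-scanning microplate cytometry. Cells from a stable line were exposed to compound titrations (5 concentrations) for 24 hours, with CCCP controls.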
D2 PAM = human D2 receptor positive allosteric modulation | DiscoveRx D2 beta-arrestin cells, luminescence, 90 min; 100% = 57 uM dopamine signal | P14416 | potentiation, % (no concentration beside the values) | hit rate 0.23% among 360,000; active = potentiation of 50% or more; inconclusive = 30% to 50%; inactive = 30% or less;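 further: compound concentration not given in the record; tested on top of an EC20 dose of dopamine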
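PathHunter D2 cells, attached overnight at 37 deg C, received compound in DMSO plus dopamine at EC20 (50 nM final) for 90 min at 37 deg C. Beta-arrestin recruitment was read as luminescence after 1 h with detection reagent at ambient temperature.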
CtBP-E1A inh = CtBP/E1A binding inhibition. activity change, % (no concentration beside the values). hit rate 0.49% among 340,000. AlphaScreen GST-E1A/His-CtBP binding, 1536-well; active compounds read low; control for the full effect not named in the record; in the data active means activity change below about -65%; inconclusive means about -30% to -65%; inactive means above about -30%; further: on the % scale 0 is the no-effect control and ±100 the full control effect
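Steps: dispense buffer (Tris pH 8.0, NaCl 300 mM, TCEP 1 mM, BSA, Tween 20); add 5X protein mix (GST-E1A, His-CtBP, 125 nM each); pin 23 nL compound; 2 h at 37 °C, dark; add 5X beads (50 ug/mL); 1 h; read.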
D2 ag = human D2 receptor agonism in beta-arrestin assay; activation, % (concentration not given with the values); hit rate 0.084% among 360,000; AID 624465; DiscoveRx PathHunter D2 beta-arrestin, luminescence, 90 min; 100% = 57 uM dopamine signal; P14416; in the data active = activation above about 40%; inconclusive = about 15% to 40%; inactive = below about 15%; further: compound concentration not given in the record; the text of the record calls up to 30% inactive
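Agonist mode: compounds alone added to overnight-plated D2 PathHunter cells for 90 min at 37 C, with 57 uM final dopamine (EC100) defining full response. Beta-arrestin recruitment detected by chemiluminescent reagent, read after 1 h at ambient temperature.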
TRPV1 potentiator = human TRPV1 potentiation | Q8NER1 | TRPV1-expressing cells, Fluo-8 calcium influx, capsaicin EC20 potentiation; host cell line not named in the record; control for the full effect not named in the record | potentiation, % at 8.33 µM | hit rate 0.02% among 320,000 | AID 540277; active means potentiation above 80%; inconclusive means 30% to 80%; inactive means below 30%; further: 0% is about no effect
Target sequence (Q8NER1 whole entry, looked up): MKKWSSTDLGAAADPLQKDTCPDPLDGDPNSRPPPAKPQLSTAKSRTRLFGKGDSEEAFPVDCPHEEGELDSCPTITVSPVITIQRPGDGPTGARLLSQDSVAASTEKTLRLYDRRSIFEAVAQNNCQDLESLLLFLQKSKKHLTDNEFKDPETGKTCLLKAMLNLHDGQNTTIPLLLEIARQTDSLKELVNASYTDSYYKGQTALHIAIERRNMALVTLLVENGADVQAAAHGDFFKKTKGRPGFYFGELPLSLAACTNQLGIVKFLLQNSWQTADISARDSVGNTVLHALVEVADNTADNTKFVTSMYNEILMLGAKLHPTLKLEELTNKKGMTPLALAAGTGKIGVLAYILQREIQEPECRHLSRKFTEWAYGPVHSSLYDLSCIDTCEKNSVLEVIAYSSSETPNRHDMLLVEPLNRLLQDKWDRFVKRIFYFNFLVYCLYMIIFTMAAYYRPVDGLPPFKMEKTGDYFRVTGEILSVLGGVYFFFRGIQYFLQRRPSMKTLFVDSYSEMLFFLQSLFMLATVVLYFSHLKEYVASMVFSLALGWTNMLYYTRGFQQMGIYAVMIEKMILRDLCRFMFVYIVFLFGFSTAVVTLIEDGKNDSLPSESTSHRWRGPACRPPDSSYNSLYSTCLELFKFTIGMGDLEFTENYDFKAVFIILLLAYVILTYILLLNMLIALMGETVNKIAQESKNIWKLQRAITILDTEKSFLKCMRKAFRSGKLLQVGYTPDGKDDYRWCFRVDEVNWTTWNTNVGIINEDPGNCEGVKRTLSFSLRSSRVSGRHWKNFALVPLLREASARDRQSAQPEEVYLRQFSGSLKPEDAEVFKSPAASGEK
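Fluo-8 calcium influx in TRPV1-expressing cells, kinetic read (ex 480/em 520 nm). Compound added and read 3 min for agonist activity, followed by capsaicin at EC20 final and 2 min further read for enhancement.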
Sfp inh = blocks B. subtilis Sfp PPTase activity | Q9F4F7 | Biochemical Sfp PPTase activity, qHTS | Potency, µM, without a hit: max response, negative = inhibition, usual class: inhibitors | hit rate 3.5% among 310,000 | AID 1490; active means well fitted inhibition curve with a large enough effect; inconclusive means small, poorly fitted or top-dose-only effect, or another doubt; inactive means no such curve, though single readings can be large or run the other way;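 further: the enzyme is Sfp with the accession as filed and its product quenches rhodamine fluorescence; potency means the concentration at half of the fitted maximal effect; 0% = enzyme reaction without inhibitor and -100% = no enzyme wells; top concentration of the series not given in the record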
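Reaction rates are the 30-min fluorescence difference (ex 525, em 598 nm) in wells containing 15 nM Sfp, 5 uM rhodamine-CoA and 12.5 uM BHQ-2-YbbR at pH 7.6 with 10 mM MgCl2.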
* hit, by the source's call; ? = inconclusive; . = no result given; & = joins results of further samples; [ ] = remark or other dose. This is a subset. The share of hits here may be higher or lower than overall.

[1] N#CC1=C(N)Oc2cc(O)ccc2C1c1ccc2c(c1)OCO2 (configuration not stated)
[2] CCCCCn1c(N)c(C(=O)NCc2cccs2)c2nc3ccccc3nc21
[3] CS(=O)(=O)N1Cc2cnnn2-c2ccccc2C1C#N (configuration not stated)
[4] COc1ccc(-n2nnnc2C(c2ccccc2)N2CCC3(CC2)C(=O)NCN3c2ccccc2)cc1 (configuration not stated)
[5] CC(C)[N+]12CCC(CC1)C(C(O)(c1ccccc1)c1ccccc1)C2 (configuration not stated)
[6] O=C(CNC(=O)OCc1ccccc1)NCC(=O)Nc1ccc(Br)cc1C(=O)c1ccccc1
[7] COc1ccc(-[n+]2c(-c3ccccc3)cc(-c3ccccc3)cc2-c2ccccc2)cc1
[8] O=C(c1ccc2c(c1)N(Cc1ccc(F)cc1)CCS2)N1CCC2(CC1)OCCO2

assay / entry	1	2	3	4	5	6	7	8
Six1-Eya2 blk	-3.4	20.7	3.6	-20.2	6.3	6.3	-3.2	-2.8
PINK1 modulator	-2.9%	5.0%[38.3 µM]	-1.6%	-0.3%	0.7%	2.2%	15.8µM*	-0.1%
D2 PAM	7.7	-8.5	-7.3	-6.5	-8.1	2.5	-38.4	-17.6
CtBP-E1A inh	0.0	17.1	0.3	-12.3	9.3	-4.2	0.0	-18.2
D2 ag	1.9	-4.8	-3.6	0.8	-5.9	-3.8	-0.7	8.2
TRPV1 potentiator	11.0	-12.8	.	.	-1.2	5.0	-6.6	-5.3
Sfp inh	11.3%	-5.3%	.	.	-4.5%	-12.6%	.	-7.8%

[9] NC(C(=O)O)c1cc(=O)[nH]o1 (configuration not stated)
[10] O=[N+]([O-])c1ccc(N2CCCC2)c(F)c1Br
[11] CC(=O)Cc1ccc(OC(C)C)cc1
[12] COc1ccc(S(=O)(=O)NC(CC(=O)N2CCC3(CC2)OCCO3)c2ccco2)cc1 (configuration not stated)
[13] CC(C)c1ccc(N2C(=O)NC(=O)/C(=C\C=C\c3ccco3)C2=O)cc1
[14] COC(=O)C1=C(c2ccc(S(C)(=O)=O)cc2)C[C@@H]2CC[C@H]1N2C(=O)NCc1ccc(C(F)(F)F)cc1
[15] COc1ccc2c(c1OC)CN1CCc3cc4c(cc3C1C2)OCO4 (configuration not stated)
[16] O=C(c1csc2c1CCCCC2)N1CCC2(CC1)OCCO2

assay / entry	9	10	11	12	13	14	15	16
Six1-Eya2 blk	11.7	-15.8	12.9	12.1	-18.9	5.7	-15.1	1.0
PINK1 modulator	1.3%	-1.2%	0.3%	-1.9%	3.9%	-0.7%	0.1%	-3.4%[38.3 µM]
D2 PAM	-4.1	-5.8	-3.3	-16.4	3.2	-11.8	-23.3	-7.7
CtBP-E1A inh	-8.6	-2.4	4.7	-2.3	-0.5	-17.9	?	3.8
D2 ag	-5.1	5.7	-3.1	2.6	-4.4	0.1	-0.2	-2.3
TRPV1 potentiator	18.1	3.7	11.8	4.7	9.3	.	-0.6	-41.5
Sfp inh	79.4µM*	9.9%	14.8%	3.0%	-18.1%	.	2.6%	11.9%

[17] C/C(=N/OC(=O)N(C)C)c1ncc(C(F)(F)F)cc1N1CCOCC1
[18] COc1ccc2[nH]cc(CCN=C(N)N)c2c1
[19] Cc1ccc(-n2c(/C=C/c3ccccn3)nc3ccccc3c2=O)cc1
[20] O=C(CNC(=O)OCc1ccccc1)Nc1ccc(Br)cc1C(=O)c1ccccc1Cl
[21] COc1cc(C[C@@H](C)N)c(OC)cc1I
[22] COC(=O)C1=C(c2ccccc2)C[C@@H]2CC[C@H]1N2C(=O)NCc1cccc2ccccc12
[23] C=CCn1c(O)c(C(C)=NCCCO)c(=O)[nH]c1=O
[24] Cc1ccc(C(c2nnnn2Cc2ccccc2)N2CC=C(c3ccc(F)cc3)CC2)cc1 (configuration not stated)

assay / entry	17	18	19	20	21	22	23	24
Six1-Eya2 blk	-1.3	3.8	2.3	-7.0	-3.9	-0.8	5.3	-8.6
PINK1 modulator	1.7%	-0.8%	2.1%	-1.6%	2.0%	-1.8%	-0.8%	.
D2 PAM	-7.9	8.3	-2.9	1.1	3.4	-18.4	11.2	-4.5
CtBP-E1A inh	5.6	-24.5	5.6	-5.0	-6.2	-0.2	5.6	-19.2
D2 ag	-3.8	-3.8	-3.0	2.9	-1.2	-3.1	-3.1	-2.5
TRPV1 potentiator	1.7	-0.8	?	11.8	-0.9	.	-5.1	-15.9
Sfp inh	0.7%	6.1%	0.9%	28.2µM*	-0.8%	.	19.7%	-1.4%

[25] Cc1cc(C(=O)CS(=O)c2ccc(F)cc2)cc(C)c1OC(=O)N(C)C (configuration not stated)
[26] CCCCn1c(O)c(/C=C2/C=CC=N2)c(=O)[nH]c1=O
[27] CCOC(=O)c1c(C=O)c2ccccc2n1Cc1ccccc1
[28] [O-][n+]1onc2c1CCC1N(O)CCC21O (configuration not stated)
[29] O=c1[nH]c(Cl)ccc1CN1CCOCC1
[30] CCN(CC)CCOC(=O)c1ccc(N=Cc2c(O)[nH]c(=O)[nH]c2=O)cc1
[31] C[C@]12CC[C@@H](O)CC1=CCC1C2CC[C@@]2(C)C1C[C@@H](F)[C@H]2O (some centres not stated)
[32] Cc1ccc(CN2CCCC(C(=O)c3cccc(C(F)(F)F)c3)C2)o1 (configuration not stated)

assay / entry	25	26	27	28	29	30	31	32
Six1-Eya2 blk	2.3	-5.5	7.2	3.4	-3.2	4.9	-6.0	-2.1
PINK1 modulator	-1.3%	4.4%	1.3%	9.8%[38.3 µM]	-0.8%	0.0%	0.1%	7.0%
D2 PAM	1.6	-5.5	-4.8	-2.8	-13.5	-3.8	-4.8	-15.0
CtBP-E1A inh	-4.5	3.4	0.2	6.9	5.8	7.0	8.0	0.3
D2 ag	-6.0	-8.3	-2.9	-1.7	-3.1	-2.3	-0.3	-1.0
TRPV1 potentiator	-28.9	5.9	-15.4	2.8	2.9	-4.2	.	14.1
Sfp inh	?	14.0%	-7.6%	5.4%	.	-18.2%	.	10.3%

[33] c1ccc(CCNCc2ccccc2)cc1
[34] COc1ccccc1CCNC1CCC(C)CC1 (configuration not stated)
[35] CC1(C)N(O)C2CCCCC2N1O (configuration not stated)
[36] Cc1cc2oc(=O)cc(-c3cc4ccccc4o3)c2cc1OC(=O)N(C)C
[37] O=P(NS(=O)(=O)c1ccc(Cl)cc1)(Oc1ccccc1)Oc1ccccc1
[38] O=C(c1ccc(F)cc1)C(Cc1ccccc1)N1CCCCC1 (configuration not stated)
[39] C=C[C@@H]1C[C@@]1(C)[C@@H](NP(=O)(c1ccccc1)c1ccccc1)c1ccccc1
[40] Cc1ccccc1N1C(=O)NC(=O)/C(=C\c2cnn(-c3ccccc3)c2)C1=O

assay / entry	33	34	35	36	37	38	39	40
Six1-Eya2 blk	9.9	-5.8	-4.9	-0.4	-6.1	-2.7	-7.5	-10.9
PINK1 modulator	-4.2%	-0.4%	-2.9%	4.9%	-0.3%[38.3 µM]	0.4%	2.6%	4.7%
D2 PAM	-20.9	-29.4	-4.6	-2.2	5.8	-19.4	-16.8	-9.8
CtBP-E1A inh	-1.8	4.7	-1.9	-0.5	-7.2	-11.1	4.0	4.3
D2 ag	-1.1	-4.3	4.4	1.9	0.2	2.1	0.4	-4.6
TRPV1 potentiator	-11.9	4.5	8.4	-29.7	9.6	-14.1	-1.4	18.4
Sfp inh	-5.3%	14.6%	56.2µM*	2.7%	26.6%	12.6%	7.3%&0.4%	25.1µM*

[41] CCCOc1ccccc1C1SCC(=O)Nc2c1c(=O)[nH]n2C(C)CCC (configuration not stated)
[42] CC1(c2ccccc2)NCCN2C(=O)CSC21 (configuration not stated)
[43] CNC(=O)Nc1ccc(C(O)(C(=O)OC)C(F)(F)F)cc1 (configuration not stated)
[44] COc1cc(OC)cc(C(=O)N2CCC(N3CCN(c4ccccc4)CC3)CC2)c1
[45] Fc1cccc(CN2CCN(c3ccc(Cl)cc3)CC2)c1
[46] O=C(Cc1ccccc1)OCCN1CCCCC1
[47] COc1cc2c(cc1OC)-c1c(OC)c(OC)cc3c1C(C2)N(C)CC3 (configuration not stated)
[48] CCOC(=O)[C@]12Cc3cc(OC)ccc3[C@H]1N(C)C(=O)c1ccccc12

assay / entry	41	42	43	44	45	46	47	48
Six1-Eya2 blk	3.3	5.2	1.8	2.3	-25.7	-0.3	?	1.7
PINK1 modulator	0.0%	-1.6%	1.5%	2.2%	?	0.8%	1.7%	1.1%
D2 PAM	7.2	-4.8	-5.5	-26.7	-50.8	-28.9	-71.6	.
CtBP-E1A inh	9.4	3.6	6.1	4.6	.	-4.4	?	0.7
D2 ag	-5.0	-2.7	1.5	3.9	11.9	-2.2	5.3	.
TRPV1 potentiator	24.8	-6.8	3.8	-14.3	-0.9	-2.1	-3.7	.
Sfp inh	10.1%	18.8%	6.7%	44.7µM*	3.4%	17.7%	-2.1%	.

Complete entries as entered above:
Results for `CCCOc1ccccc1C1SCC(=O)Nc2c1c(=O)[nH]n2C(C)CCC` (configuration not stated) = Six1-Eya2 blk = 3.3; PINK1 modulator = 0.0%; D2 PAM = 7.2; CtBP-E1A inh = 9.4; D2 ag = -5.0; TRPV1 potentiator = 24.8; Sfp inh = 10.1%
Results for `O=C(Cc1ccccc1)OCCN1CCCCC1` = Six1-Eya2 blk = -0.3; PINK1 modulator = 0.8%; D2 PAM = -28.9; CtBP-E1A inh = -4.4; D2 ag = -2.2; TRPV1 potentiator = -2.1; Sfp inh = 17.7%

The listing continues.
[49] O=C(c1ccccc1)C(Cc1ccccc1)N1CCOCC1 (configuration not stated)
[50] N#CC(C#N)=C(N)c1cccnc1
[51] C=CCn1c(O)c(C(C)=Nc2ccc(NC(C)=O)cc2)c(=O)[nH]c1=O
[52] COC(=O)C1=C(c2ccc(OCc3ccccc3)cc2)C[C@@H]2CC[C@H]1N2C(=O)NCc1ccccc1C(F)(F)F
[53] CN1CCN(c2ccc(S(=O)(=O)C(F)(F)F)cc2[N+](=O)[O-])CC1

assay / entry	49	50	51	52	53
Six1-Eya2 blk	6.2	-1.1	4.8	-0.5	-1.4
PINK1 modulator	-3.0%	2.3%	-2.7%	1.1%	3.4%
D2 PAM	-7.4	3.2	-3.3	.	1.9
CtBP-E1A inh	-1.2	-1.3	2.0	-9.1	2.7
D2 ag	-7.1	-4.9	-4.1	-3.5	-1.5
TRPV1 potentiator	.	-4.1	-4.2	.	-19.5
Sfp inh	.	-7.3%	3.1%	.	9.8%
